# Assay outcomes as filed in PubChem BioAssay.
# VACV E9 pol inh – vaccinia E9 polymerase processive synthesis inhibition | normalized absorbance, % (no concentration beside the values) | in vitro processive DNA synthesis, absorbance read-out; hits give low values; some inactives read as strong as hits | 0.94% of 46,000 active;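 active = replicate mean up to 90% and picked by the depositor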;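 also: 100% = median of the test wells of a plate; 100 nL library stock went into each well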
# Starred values were filed as active, the others as inactive. Only part of the results is shown (hit frequency here may not be typical).
structure | VACV E9 pol inh
N#CCCn1cc(C2CC(c3ccccc3)=NNC2=O)c2ccccc21 (stereo not drawn) | 109.7
COCC(C)NCc1cccc(Br)c1 (stereo not drawn) | 97.5
O=C(Nc1ccccn1)c1cc2ccccc2o1 | 100.6
Cc1nc(N)c(Cc2ccc(Cl)cc2Cl)c(N)n1 | 96.0
COc1ccc(Cl)cc1S(=O)(=O)N1CCCCCC1 | 89.1
COc1ccc2oc(=N)c(C(N)=O)cc2c1 | 100.0
N#CC(C(=O)COc1ccccc1)c1nc2ccccc2[nH]1 (stereo not drawn) | 107.2
CC(C)(C)c1ccc(C(=O)N/C(=C/c2cccs2)C(=O)N2CCOCC2)cc1 | 100.6
O=C(O)CCn1c2ccccc2c2cn[nH]c(=O)c21 | 83.2
CC(C)CCNCc1c(C(=O)O)n(Cc2ccccc2)c2ccccc12 | 86.9
O=C(C1=C(O)C(=O)N(CCc2ccccc2)C1c1ccccc1)c1cccs1 (stereo not drawn) | 100.4
CCOC(=O)c1cnn(C(=O)COc2ccc(C(C)(C)C)cc2C(C)(C)C)c1N | 97.1
CCCC(=O)Oc1ccc2c(C)cc(=O)oc2c1 | 100.3
COC(=O)C1=CN(CCc2ccccc2)C=C(C(=O)OC)C1C(=O)OC | 100.6
COC(=O)c1sc(=S)n(-c2cccc(C)c2)c1N | 100.2
OC(C#CCN1CCOCC1)c1cccs1 (stereo not drawn) | 99.9
N=C(N)Sc1cn(CCNC(=O)c2ccccc2)c2ccccc12 | 108.4
COc1ccccc1-c1csc(N)n1 | 107.3
CCC1CCCCN1C(=O)CSc1nc2c(c(=O)n1-c1ccccc1)SCC2 (stereo not drawn) | 100.1
Cc1cc(C)n(C(=O)c2ccc(-c3ccccc3)cc2)n1 | 99.8
COC(=O)c1cc(/C=C/C(=O)N(C(=O)NC2CCCCC2)C2CCCCC2)cn1C | 99.7
O=C(COC(=O)c1cc(C(F)(F)F)cc(C(F)(F)F)c1)NCC1CCCO1 (stereo not drawn) | 84.7
CC(=O)N1CC(C)Sc2cc(S(=O)(=O)Nc3cccc(Cl)c3)ccc21 (stereo not drawn) | 98.9
COC(=O)C1=C(NC(=O)CSCc2ccccc2)CCS1 | 101.3
CCOC(=O)c1c(NC(=O)C2CC2)sc2c1CCC2 | 97.7
CC(=O)Nc1ccc(C2=N/C(=C/c3cn(C(C)=O)c4ccccc34)C(=O)O2)cc1 | 87.4
O=C(O)C1CCCN1C(=O)Nc1ccccc1 (stereo not drawn) | 100.8
COc1ccc(Cl)cc1NC(=O)/C(C)=C\C(=O)O | 93.0
Cc1c(Cl)cccc1NCC(=O)N1CC2(C)CC1CC(C)(C)C2 (stereo not drawn) | 100.6
O=C(OCC1COc2ccccc2O1)c1ccc(Br)cc1 (stereo not drawn) | 92.9
Cc1ccc(OCC(=O)N2CCCc3ccccc32)cc1 | 93.3
O=C(Nc1ccc(Cl)cn1)c1cccc(S(=O)(=O)N2CCCCCC2)c1 | 99.6
O=C(c1ccccc1)C1CCN(C(=O)c2ccco2)CC1 | 100.9
Fc1ccc2nc(Nc3nnc(-c4ccco4)o3)sc2c1 | 97.1
Cc1ccc2oc(=O)c3cnn(CC(=O)N4CCCCC4)c3c2c1 | 102.7
CC1(C)CN(C(=S)Nc2cccc(Cl)c2)C1=O | 102.1
Cc1c(CCC(=O)O)c(=O)oc2cc3oc4c(c3cc12)CCCC4 | 95.3
CCOc1ccc2nc(/N=C/c3ccccc3O)sc2c1 | 100.2
COc1cccc2c(=O)n(CC(=O)Nc3ccccc3)ccc12 | 96.8
CC(C)CC(NC(=O)C1CCCCC1)C(=O)NC1CCC(C)CC1 (stereo not drawn) | 85.6
COC(=O)CSc1nsc(SCC(=O)OC)c1C#N | 100.1
Clc1cccc(OCc2ncn(-c3cccc(Cl)n3)n2)c1 | 106.4
COc1cc(C2NCCS2)cc(OC)c1OC (stereo not drawn) | 99.7
OC1C(c2ccccc2)=NNC1c1ccccc1 (stereo not drawn) | 105.2
CC(C)(C)c1ccc(-c2nc3ccccc3s2)cc1 | 100.1
Cc1nc2ccccc2c(C)c1C(=O)Nc1ccc(Cl)cc1 | 90.7
CSC1=C(C#N)C2(CCCCC2)C(c2nc(-c3ccc(C)cc3)cs2)C(N)=N1 (stereo not drawn) | 100.0
O=C(CSc1nccn1-c1ccc(Cl)cc1)NCCc1ccccc1 | 96.3
CC(Oc1ccc(Br)cc1)C(=O)NN (stereo not drawn) | 99.9
CCC(C)NC(=O)c1cc(-c2cccc(OC)c2)no1 (stereo not drawn) | 100.6
C[N+]1(Cc2cn3ccccc3n2)CCOCC1 | 88.6
c1ccc(N2CCN(c3c4c(nc5ncnn35)CCC4)CC2)cc1 | 108.0
CC1CC2c3cccc(C(=O)O)c3C(=O)N2c2ccc(F)cc21 (stereo not drawn) | 100.1
Cc1cc(C(F)(F)F)nn1CC(N)=O | 95.6
COc1ccccc1CC(=O)NCC1OCCc2ccccc21 (stereo not drawn) | 100.0
Brc1cccc(CN2CCN(Cc3cccc(Br)c3)CC2)c1 | 99.8
CCSC1=C(C#N)C(c2ccccc2OC)C(C#N)C(=O)N1 (stereo not drawn) | 99.5
CCOC(=O)C1C(=O)C=C(c2ccc(C)cc2)CC1c1ccc(CC)cc1 (stereo not drawn) | 103.8
CN1C[C@H](CO)C=C2c3cccc4[nH]cc(c34)C[C@H]21 | 98.5
COc1ccccc1NC(=S)NC1CC2CCC1C2 (stereo not drawn) | 106.9

# (continued)
SMILES,VACV E9 pol inh
Cc1cc(C)c2sc(N3CCCC3)nc2c1,85.2
Cc1cccc(C)c1Nc1c(-c2ccsc2)nc2sccn12,100.5
Cc1ccc2nc(Nc3ccc(Cl)cc3)c(/C=N/O)c(=O)n2c1,100.1
Cc1cc(Nc2ccccc2)n(CCC#N)n1,93.0
Cc1nnc(SCC(=O)N2c3ccccc3Sc3ccccc32)n1N,100.7
Cc1cc(NCCNc2ccccc2)c2ccc3ccccc3c2n1,71.6*
O=C(NCc1ccccc1)N1c2ccccc2Sc2ccccc21,99.6
CC(C)(C)C(=O)N1CCCC1C(=O)Nc1ccccc1 (stereo not drawn),97.1
CC(C)N(Cc1ccccc1)C(=O)c1ccc2c(c1)OCO2,100.6
CCOC(=O)NC(=O)c1cn(Cc2cccs2)c(=O)n(C)c1=O,91.9
CC(C)(C)c1cc(C(=O)OCCN2CCCCC2)cc(C(C)(C)C)c1,99.0
O=C(NCc1cccnc1)c1cc(-c2ccccn2)nc2ccccc12,101.7
COc1ccc2nc(C(=O)O)sc2c1,103.9
CCn1c2ccccc2c2cc(NC(=O)CSc3nncn3C)ccc21,92.2
CCOP1(=S)Oc2cc(Cl)ccc2C(C(F)(F)F)(C(F)(F)F)O1 (stereo not drawn),99.7
O=C1CCc2cc(C(=O)CSc3ccc(Cl)cc3Cl)ccc2N1,93.3
CCN(C(=O)c1cnccc1C(F)(F)F)c1c(C)cccc1C,99.8
O=C(Nc1ccc(OC(F)(F)F)cc1)Oc1ccccc1N1CCOCC1,100.3
Cc1ccc(C2=CC(c3ccccc3)SC(N)=N2)cc1 (stereo not drawn),100.6
COc1ccc(C(=O)NC2=C(C)N(C)N(c3ccccc3)C2)cc1,101.1
COc1cc(OC)cc(C(=O)Nc2nc(-c3ccccc3)cs2)c1,101.2
CC(C)CN(CC(C)C)C(=O)c1ccc2c(c1)NC(=O)/C(=C/c1ccccc1)S2,106.4
OCc1ccc(-c2nn(Cc3ccccc3)c3ccccc23)o1,100.0
CC(C)N1CSC(=S)N(Cc2ccccc2)C1,101.2
Nc1ccc(C(=O)OCC(=O)c2ccc(Br)cc2)c(O)c1,104.9
CC1CN(C(=O)Nc2ccc3snnc3c2)c2ccccc21 (stereo not drawn),90.7
Clc1ncc(CN2CCOCC2)s1,96.9
OCCCc1cn[nH]c1C(F)(F)F,98.8
C=CCSc1[nH]c(=O)c(C(=O)OCC)cc1C(N)=O,89.7
O=C(CC1SCCNC1=O)Nc1ccc(Cl)c(Cl)c1 (stereo not drawn),94.3
c1ccc(CSC23CC4CC(CC(C4)C2)C3)cc1,107.6
Cc1cc(/C=C2/C(=N)N3C=CSC3=NC2=O)c(C)n1-c1ccccc1,97.9
Cc1cc(-n2ncc(C#N)c2N)nc2ccccc12,95.9
O=C(O)CCC(=O)c1ccccc1,108.0
Cc1cc(C)n(C(=O)CCC(=O)NCc2ccccc2)n1,95.9
CN(Cc1ccccc1)Cc1cccnc1,100.4
O=C(NCCn1ccc2ccccc21)c1cccs1,100.7
Cc1ccc(NC(=O)CSc2nnc3ccccn23)c(C)c1,100.2
COc1cccc2sc(=NC(=O)c3cccc(C(F)(F)F)c3)n(C)c12,100.5
CSC1=N/C(=C\c2ccccc2O)C(=O)N1Cc1ccc(Cl)cc1,99.5

# Grouped by structure: the entries above containing a COOH group
SMILES,VACV E9 pol inh
O=C(O)CCn1c2ccccc2c2cn[nH]c(=O)c21,83.2
CC(C)CCNCc1c(C(=O)O)n(Cc2ccccc2)c2ccccc12,86.9
O=C(O)C1CCCN1C(=O)Nc1ccccc1 (stereo not drawn),100.8
COc1ccc(Cl)cc1NC(=O)/C(C)=C\C(=O)O,93.0
Cc1c(CCC(=O)O)c(=O)oc2cc3oc4c(c3cc12)CCCC4,95.3
CC1CC2c3cccc(C(=O)O)c3C(=O)N2c2ccc(F)cc21 (stereo not drawn),100.1
COc1ccc2nc(C(=O)O)sc2c1,103.9
O=C(O)CCC(=O)c1ccccc1,108.0

# Remaining list, next part.
SMILES,VACV E9 pol inh
COc1ccc(C(=O)Nc2ccc(S(=O)(=O)Nc3nccnc3OC)cc2)cc1,100.4
O=C(NCc1ccccc1Cl)C1CCC(=O)N1Cc1ccc(F)cc1 (stereo not drawn),100.6
O=c1/c(=C/c2c(F)cccc2Cl)sc2nc3ccccc3n12,103.3
Cc1cccc(NC(=O)c2cn(-c3ccccc3)nc2-c2cccnc2)c1,99.8
CCOc1ccc2nc(N3CCC(C(=O)N4CCCCC4)CC3)sc2c1,94.2
COc1ccc(N/C=C(/C#N)c2cccs2)cc1,104.1
CN1C2CCC1CC(NC1CCCCC1)C2 (stereo not drawn),97.8
CC(C)OC(=O)Cc1csc(-c2ccc(Oc3ccc(C(F)(F)F)cn3)cc2)n1,100.8
Cc1cc(C)n2nc(CNS(=O)(=O)c3cccc4nsnc34)nc2n1,103.9
CCOC(=O)c1c(C(C)(C)C)oc2ccc(OCC(=O)OC)cc12,99.9
O=C(COC(=O)c1ccccc1Br)NCC1CCCCC1,94.7
Cc1ccc(CNC(=O)C2c3ccccc3C(=O)N3CCc4ccccc4C23)cc1 (stereo not drawn),105.1
CCOc1ccc(Cl)cc1S(=O)(=O)N1CCCC(C)C1 (stereo not drawn),105.9
COC(=O)c1cc(S(=O)(=O)NC2CCCCC2C)c[nH]1 (stereo not drawn),110.2
CN(C(=O)Cn1c(=O)n(CC(=O)NCCc2ccccc2)c(=O)c2sccc21)C1CCCCC1,98.2
Cc1cc2nc3c(c(C(F)(F)F)n2n1)CCCC3,94.2
COc1ccc(OCC(O)CNC(=O)c2ccc(N(C)C)cc2)cc1 (stereo not drawn),97.9
Cc1ccc(C2=NNC(=S)C3=CNc4ccccc4N32)cc1,100.2
Fc1ccc(N2CCN(Cc3c[nH]c4ccccc34)CC2)cc1,81.0
O=C(NCCC1=CCCCC1)c1ccc2c(c1)ncn2-c1cccc(F)c1,109.1

# Three successive records already listed, for reference:
SMILES,VACV E9 pol inh
O=C(COC(=O)c1ccccc1Br)NCC1CCCCC1,94.7
Cc1ccc(CNC(=O)C2c3ccccc3C(=O)N3CCc4ccccc4C23)cc1 (stereo not drawn),105.1
CCOc1ccc(Cl)cc1S(=O)(=O)N1CCCC(C)C1 (stereo not drawn),105.9

# The list continues.
SMILES,VACV E9 pol inh
O=C(O)CCN1C(=O)CC2(CCCCC2)C1=O,102.8
CCOC(=O)c1c2ccc(O)cc2n2ccccc12,74.8*
CCc1ccc(-c2ccc(Br)cc2)nc1,95.4
O=C(O)c1ccc(S(=O)(=O)N(Cl)Cl)cc1,99.8
Cc1cc2cc(CNC(=O)/C=C\c3ccccc3)ccc2n1C,98.9
CC1CC(C)CN(S(=O)(=O)c2ccc(NC(=O)C3COc4ccccc4O3)cc2)C1 (stereo not drawn),92.3
CCCCC1CCC(C(=O)Nc2c3c(nn2-c2ccccc2C)CS(=O)C3)CC1 (stereo not drawn),91.1
Cc1cc(N/C=C2\CCCCC2=O)no1,94.6
Cc1cc(C)n(Cc2ccc(C(=O)O)cc2)n1,100.0
COC(=O)C1=C(O)/C(=C\c2ccccc2OC)N=C1C,100.0
Cc1ccc(-c2nn(CC(=O)Nc3cccnc3)c(=O)c3ccccc23)cc1,93.9
CC[C@H](CO)Nc1nc(NCc2ccccc2)c2ncn(C(C)C)c2n1,99.6
Cc1ccc(SC(C)C(=O)NCC2CCCO2)cc1 (stereo not drawn),103.4
COC(=O)c1ccc(-c2ccco2)[nH]1,105.1
COc1ccc(C(C#N)N2CCN(C(C#N)c3ccc(OC)cc3)CC2)cc1 (stereo not drawn),94.1
CCOC(=O)CC(=O)Nc1ccsc1C(=O)OC,101.0
COc1ccc(CCNC(=O)c2cn(CC(C)C)c(=O)c3cc(OC)c(OC)cc23)cc1OC,98.9
CSc1cc(-c2ccc(Cl)cc2)nc(-c2cccs2)c1,96.7
CC1(C)CC(NCc2ccccc2F)CC(C)(C)N1,89.5
CC1CC(C)CN(C(=O)c2cccs2)C1 (stereo not drawn),99.4
CC(C)NC(=O)C1(O)c2ccccc2NC(=O)N1c1ccc(Cl)c(Cl)c1 (stereo not drawn),91.7
O=C(Nc1c(F)cccc1F)c1cccc(Oc2ccccc2)c1,107.4
CN(C)/C=C1\C(=O)c2ccc(Cl)cc2N(Cc2c(F)cccc2Cl)S1(=O)=O,66.9
CCOC(=S)Nc1ccc(I)cc1,76.3
O=C1CC(c2ccc(Cl)cc2)C2=C(CC(c3cccs3)CC2=O)N1 (stereo not drawn),101.3
COc1cc2c(cc1OBr)C(Cc1ccc(OC(C)=O)cc1)N(C)C2 (stereo not drawn),97.1
COc1cc2cc3c(=O)oc(-c4ccccc4F)nc3nc2cc1OC,98.6
CC1CCCN(C(=O)c2cccc(S(=O)(=O)N3CCCC3)c2)C1 (stereo not drawn),107.0
Cc1ccsc1CCNC(=O)c1cc(S(=O)(=O)N2CCCCC2)c[nH]1,92.7
CCn1c(C(=O)N2CCC(C(=O)NCc3ccccc3)CC2)cc2sccc21,102.5
